# Compound activity deposited in PubChem BioAssay by National Center for Advancing Translational Sciences (NCATS).
# VDR inh: Inhibitors of the vitamin D receptor (VDR): qHTS. Vitamin D3 receptor (Homo sapiens), P11473. VDR-SRC2-3 peptide fluorescence polarization, 2 h. Potency, µM, without a hit: max response, negative = inhibition, usual class: inhibitors. 400,000 tested, 0.93% active; active = well fitted inhibition curve with a large enough effect; inconclusive = small, poorly fitted or top-dose-only effect, or another doubt; inactive = no such curve, though single readings can be large or run the other way; note: series mostly up to about 120 µM
# Target sequence (P11473 whole entry, looked up): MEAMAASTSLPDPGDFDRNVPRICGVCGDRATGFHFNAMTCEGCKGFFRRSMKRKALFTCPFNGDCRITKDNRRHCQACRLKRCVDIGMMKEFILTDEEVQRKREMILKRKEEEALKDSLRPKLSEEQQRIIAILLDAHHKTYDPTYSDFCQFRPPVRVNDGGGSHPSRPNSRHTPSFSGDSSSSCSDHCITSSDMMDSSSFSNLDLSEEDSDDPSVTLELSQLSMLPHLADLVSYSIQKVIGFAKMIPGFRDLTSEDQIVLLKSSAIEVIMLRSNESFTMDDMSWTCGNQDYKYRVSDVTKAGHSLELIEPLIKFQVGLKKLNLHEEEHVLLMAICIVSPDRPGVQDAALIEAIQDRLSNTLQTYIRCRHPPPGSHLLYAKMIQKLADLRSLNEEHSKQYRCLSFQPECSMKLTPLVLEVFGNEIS
#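 Compounds are added to VDR with labelled SRC2-3 coactivator peptide and held 2 h at room temperature. Inhibition of the VDR–peptide interaction is then read as a change in fluorescence polarization.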
# The depositor's hits bear a star; ? = inconclusive; & = joins results of further samples; [ ] = dose if it differs, or a comment. % is set by controls: 0 for no effect and ±100 for the full control effect; potency is the fitted concentration of half-maximal effect. Only part of the results is shown (hit frequency here may not be typical).
SMILES,VDR inh
Cc1cc(OCC(=O)NCc2cccnc2)c2c(C)cc(=O)oc2c1,-6%
CC(C)NC(=O)CSc1nncn1-c1ccccc1,5%
O=C(CN(Cc1cccs1)C(=O)CCC(=O)Nc1nccs1)NCc1ccccc1,-2%
Cc1cc(C)c(NC(=O)CN2C(=O)c3cccnc3Oc3ccc(Cl)cc32)c(C)c1,8%
Cn1cc(C(=O)NCCc2ccc(Cl)cc2)c(=O)c2cc(S(=O)(=O)N3CCCCC3)ccc21,5%
CC(=O)N1CCC(N(CCCOC(C)C)C(=O)Nc2ccc(C)c(C)c2)CC1,9%&-13%
CN(C)CCCN1C(=O)c2oc3ccc(F)cc3c(=O)c2C1c1cccnc1 (stereo not given),3%
COc1ccc(/C=N/n2c(SC)nnc(C(C)(C)C)c2=O)cc1OC,1%
Cc1cc2nn(-c3ccc(F)cc3)nc2cc1NC(=O)c1ccc(C(C)(C)C)cc1,13%
CCOC(=O)c1cc2c(=O)n3ccccc3nc2n(C(C)C)c1=NC(=O)c1c(-c2c(F)cccc2Cl)noc1C,-13%&12%
CC1=CC(C)(C)Nc2ccccc21,?
Cc1ccc(-c2nc(=N)sn2Cc2ccccc2)cc1,18µM*
COc1cccc(C2C3=C(N=c4s/c(=C\c5ccc(OCC(=O)O)cc5)c(=O)n42)c2ccccc2CC3)c1 (stereo not given),-11%
COc1ccc(C(=O)NC(=S)NNC(=O)COc2ccccc2)cc1,-16%
CCOc1ccc(C(c2c(O)cc(C)n(Cc3ccco3)c2=O)N2CCCCC2)cc1 (stereo not given),-6%
COc1cccc(NC(=O)CSc2nc3c([nH]c4ccccc43)c(=O)n2-c2cccc(Cl)c2)c1,0%
N#Cc1c(N)n(-c2cccc(C(=O)O)c2)c2nc3ccccc3nc12,-13%
CCc1nnc(NC(=O)CCC(=O)N2CCN(Cc3cc(Cl)ccc3OC)CC2)s1,-6%
CC(=O)Nc1ccc(NC(=O)C(C)OC(=O)CCCN=C2NS(=O)(=O)c3ccccc32)cc1 (stereo not given),2%
O=C(Cn1ncc2c3ccccc3n(Cc3ccccc3)c2c1=O)NCc1ccco1,-21%
Cc1occc1C(=O)N1CCN(C(=O)C2CCCO2)CC1 (stereo not given),12%
Cc1cccc(NC(=S)Nc2ccccn2)c1C,-7%
c1ccc2c(c1)CSc1sccc1C2=C1CCNCC1,2%
Cc1cccc(C(=O)Nc2cc3nn(-c4ccc(C(C)C)cc4)nc3cc2C)c1,12%
CCOC(=O)[C@H]1[C@H]2COc3ccc(Cl)cc3[C@@H]2N2C(=O)CN(Cc3ccc(Cl)cc3)C(=O)[C@@]12C,-21%
Cc1cccc(NC(=O)Cn2c(=O)n(C)c3ccccc32)c1,0%
CC(=O)N1CCc2c(sc3c2c(=O)n(Cc2ccccc2)c(=O)n3Cc2ccccc2Cl)C1,2%
O=C(CCSc1nnc(-c2ccncc2)o1)Nc1cccc2ccccc12,-12%
O=C(COC(=O)c1ncc(Cl)c(Cl)c1Cl)NC(=O)NCc1ccccc1,-11%
O=C(CCn1c(=O)[nH]c2ccsc2c1=O)NCCc1ccc(Cl)cc1,28%
COC(=O)c1ccccc1S(=O)(=O)N1CCC(C(=O)OCc2ccc([N+](=O)[O-])cc2)CC1,-2%
CC(=O)c1c(C(C)=O)c(C)n(-c2ccc(C)c(NC(=O)c3ccccc3Cl)c2)c1C,8%
CCC(=O)Nc1ccc2nc(SCc3ccc(C)cc3)sc2c1,2%
COc1ccc(-n2c(O)c(/C=C3\C=Nc4ccccc43)c(=O)[nH]c2=O)cc1,-3%
Cc1c(C(=O)OCC2CCCO2)[nH]c2c1C(=O)CC(c1ccco1)C2 (stereo not given),-11%
C=CCOc1ccccc1C(=O)/C=C1/C(=O)Nc2ccccc21,22µM*
OCCN1CCN(c2ncnc3sc(-c4ccccc4)cc23)CC1,5%
O=C(/C=C/c1cccc([N+](=O)[O-])c1)NCCSCc1ccc(Cl)cc1Cl,-11%
O=C1N[C@@H](c2ccccc2)COC(=O)[C@@H](Cc2ccc(F)cc2)C/C=C\C[C@H]1CC(=O)N(CCO)Cc1ccccc1,2%
CN(C)c1ccc(C(CNS(=O)(=O)c2ccc(F)c(F)c2)c2c[nH]c3ccccc23)cc1 (stereo not given),-19%
COc1ccc(CNC(=O)CCCOc2cc(=O)n(C)c3ccccc23)cc1,-11%
CCn1c(CNC(=O)Cc2ccc(OC)cc2)nnc1SCC(=O)NC1CCCCC1,1%
CC1CCN(C(=O)c2ccc([N+](=O)[O-])o2)CC1,12%
COc1ccc(NN=Nc2nc3c([nH]2)c(=O)n(C)c(=O)n3C)cc1,?
O=S(=O)(c1cccc(S(=O)(=O)N2CCOCC2)c1)N1CCCCC1,-10%
COc1ccc(CCNS(=O)(=O)c2cn(C)nc2C)cc1,12%
CCOc1ccccc1N(CC(=O)Nc1cc(OC)ccc1OC)S(C)(=O)=O,11%
CCCN=Cc1sc2ccc(OCC)cc2c1O,-9%
CCCOc1ccc(NCC(=O)Nc2ccc(C)cc2C)cc1,12%
O=c1c(-c2ccc(F)cc2)nc2cnc(Oc3cccc(Cl)c3)nc2n1C1CC1,7%
Cc1ccccc1C(=O)c1cccn1CC(=O)N1CCCCC1,-4%
CCC(C)[C@@H](C(=O)N1CCNCC1)n1cc(CCCN=C(N)N)nn1 (stereo not given in full),-2%
CN(CC(=O)N1CCN(c2ccccn2)CC1)S(=O)(=O)c1ccc(Cl)cc1,12%
COc1ccc(NC(=O)c2cccc(OS(=O)(=O)N(C)C)c2)cc1,11%
Cc1c(C)c2c(OCC(=O)NCc3ccco3)cc3c(c2oc1=O)CCC(C)(C)O3,6%
c1ccc2[nH]c(C3CC3)nc2c1,3%
O=c1[nH]c2ccc(Cl)cc2c(-c2ccccc2)c1N1CCN(c2ccccn2)CC1,44%[activator]
O=C(Nc1ccc(S(=O)(=O)N2CCCCCC2)cc1)c1cc(=O)c2ccccc2o1,6%
Cc1[nH]nc(C(=O)NN=Cc2ccccc2Cl)c1N=NN(C)C,?
CCOc1cc(C)nc(N2CCC(C(=O)NCC3CCCO3)CC2)n1 (stereo not given),5%

# (listing goes on)
SMILES,VDR inh
COc1ccc(OC)c(NC(=O)N2CC(C)Oc3ccc(C)cc32)c1 (stereo not given),-7%
COc1cccc(NC(=O)CCC2CCN(C(=O)c3ccc(C(C)=O)s3)CC2)c1,-11%
Cc1cccc(OCC(=O)OCC(=O)Nc2sccc2C(N)=O)c1,27%
CCOc1ccc(N=NC2C(=O)N(C(N)=S)N=C2C)cc1 (stereo not given),-13%
CCOC(=O)c1ccc(NC(=O)Cc2coc3cc4c(cc23)CCC4)cc1,-15%
Cc1ccccc1OCCNc1cc(N2CCCCC2)ccc1[N+](=O)[O-],-15%
NC1=NC(=O)CC(C(=O)NCc2ccccc2)S1 (stereo not given),5%
COc1ccc(C)cc1S(=O)(=O)NCCc1ccccc1,12%
CCN1CCN(Cc2ccc(NC(=O)c3ccc(C)c(NC(=O)C4=NN(c5ccccc5)C(=O)C4)c3)cc2C(F)(F)F)CC1,-3%
c1ccc(Nc2nc(CSc3ncn[nH]3)cs2)cc1,-7%
CCN1CCN(c2ccc(NC(=O)c3ccco3)cc2)CC1,-3%
CCN1CCCC1CNC(=O)C1c2cc(OC)c(OC)cc2C(=O)N(C)C1c1cccnc1 (stereo not given),-6%
CC(C)Oc1cccc(C(=O)C2CCCN(S(C)(=O)=O)C2)c1 (stereo not given),-12%
CC(/C=C/c1ccc(O)cc1)=NNc1ccccc1,-6%
CCOc1ccc(N2CC(C(=O)N3CCCCCC3)CC2=O)cc1 (stereo not given),-4%
O=C(Nc1ccc2nc(-c3ccco3)c(-c3ccco3)nc2c1)N1CCCCCC1,?
COC(=O)c1cc(Cl)cc(Cl)c1OS(=O)(=O)N(C)C,-13%
COc1ccccc1C(=O)OCc1cc(=O)n2nc(-c3cccs3)sc2n1,3%
O=C(CS(=O)(=O)c1ccccc1)c1cc2cc(F)ccc2oc1=O,18%
O=C(N/N=C/c1ccc(Br)s1)c1ccco1,-9%
COc1ccc(C2CC(c3ccccc3)=NN2C(=O)COC(=O)c2cnc(Cl)c(Cl)c2)cc1 (stereo not given),5%
O=C(Cn1cc(COc2c(F)c(F)c(Br)c(F)c2F)nn1)c1ccc(O)cc1,-11%
CN1C(=O)C(O)(CC(=O)c2ccncc2)c2ccccc21 (stereo not given),1%
COc1ccc(-c2nc(CN3CCC(C(=O)N4CCc5ccccc54)CC3)c(C)o2)cc1OC,-17%

# For reference, two of the compounds above.
SMILES,VDR inh
CN1C(=O)C(O)(CC(=O)c2ccncc2)c2ccccc21 (stereo not given),1%
COc1ccc(-c2nc(CN3CCC(C(=O)N4CCc5ccccc54)CC3)c(C)o2)cc1OC,-17%

# Following part.
SMILES,VDR inh
CCSc1nc(-c2ccccc2)cc(=O)[nH]1,1%
CCCCn1c(-c2ccc(C(C)(C)C)cc2)nc2cc3[nH]c(=O)c(C(C)C)nc3cc21,-8%
Cc1ccc(-n2ncc3c(SCC(=O)Nc4cc(C)on4)ncnc32)c(C)c1,-20%
Cc1ccc(NS(=O)(=O)c2cccc(C(=O)n3ncc(C#N)c3N)c2)c(C)c1,-17%
COc1ccc(/C=C/c2c(-c3ccc(OC)cc3)oc3cccnc23)cc1,-1%
O=C(c1ccc([N+](=O)[O-])cc1)N1CCN(C2=NS(=O)(=O)c3ccccc32)CC1,-22%
CCn1cc(CNC(=O)c2cc(-c3ccc(C)cc3)nc3ccc(Br)cc23)c(C)n1,-13%
O=C(CCCCCNC(=O)c1ccccc1)N/N=C/c1ccccc1,4%
NC(=O)C1CCN(C(=O)OCc2ccccc2)CC1,4%
COc1cc(OC)c(S(=O)(=O)NC(C)C)cc1C(=O)O,2%
Cc1cccc(Cn2c(SCc3ccc(C(=O)NCCc4ccccc4)cc3)nc3ccncc32)c1,3%
CCn1c(SCC(=O)Nc2nc(C)cs2)nnc1-c1ccoc1C,-4%

# As a short view, 26 of the compounds above.
SMILES,VDR inh
COc1ccc(C)cc1S(=O)(=O)NCCc1ccccc1,12%
CCN1CCN(Cc2ccc(NC(=O)c3ccc(C)c(NC(=O)C4=NN(c5ccccc5)C(=O)C4)c3)cc2C(F)(F)F)CC1,-3%
c1ccc(Nc2nc(CSc3ncn[nH]3)cs2)cc1,-7%
CCN1CCN(c2ccc(NC(=O)c3ccco3)cc2)CC1,-3%
CCN1CCCC1CNC(=O)C1c2cc(OC)c(OC)cc2C(=O)N(C)C1c1cccnc1 (stereo not given),-6%
CC(C)Oc1cccc(C(=O)C2CCCN(S(C)(=O)=O)C2)c1 (stereo not given),-12%
CC(/C=C/c1ccc(O)cc1)=NNc1ccccc1,-6%
CCOc1ccc(N2CC(C(=O)N3CCCCCC3)CC2=O)cc1 (stereo not given),-4%
O=C(Nc1ccc2nc(-c3ccco3)c(-c3ccco3)nc2c1)N1CCCCCC1,?
COC(=O)c1cc(Cl)cc(Cl)c1OS(=O)(=O)N(C)C,-13%
COc1ccccc1C(=O)OCc1cc(=O)n2nc(-c3cccs3)sc2n1,3%
O=C(CS(=O)(=O)c1ccccc1)c1cc2cc(F)ccc2oc1=O,18%
O=C(N/N=C/c1ccc(Br)s1)c1ccco1,-9%
COc1ccc(C2CC(c3ccccc3)=NN2C(=O)COC(=O)c2cnc(Cl)c(Cl)c2)cc1 (stereo not given),5%
O=C(Cn1cc(COc2c(F)c(F)c(Br)c(F)c2F)nn1)c1ccc(O)cc1,-11%
CN1C(=O)C(O)(CC(=O)c2ccncc2)c2ccccc21 (stereo not given),1%
COc1ccc(-c2nc(CN3CCC(C(=O)N4CCc5ccccc54)CC3)c(C)o2)cc1OC,-17%
CCSc1nc(-c2ccccc2)cc(=O)[nH]1,1%
CCCCn1c(-c2ccc(C(C)(C)C)cc2)nc2cc3[nH]c(=O)c(C(C)C)nc3cc21,-8%
Cc1ccc(-n2ncc3c(SCC(=O)Nc4cc(C)on4)ncnc32)c(C)c1,-20%
Cc1ccc(NS(=O)(=O)c2cccc(C(=O)n3ncc(C#N)c3N)c2)c(C)c1,-17%
COc1ccc(/C=C/c2c(-c3ccc(OC)cc3)oc3cccnc23)cc1,-1%
O=C(c1ccc([N+](=O)[O-])cc1)N1CCN(C2=NS(=O)(=O)c3ccccc32)CC1,-22%
CCn1cc(CNC(=O)c2cc(-c3ccc(C)cc3)nc3ccc(Br)cc23)c(C)n1,-13%
O=C(CCCCCNC(=O)c1ccccc1)N/N=C/c1ccccc1,4%
NC(=O)C1CCN(C(=O)OCc2ccccc2)CC1,4%
